Bioassay records (PubChem)
TRPML1 ag: activates the human TRPML1 channel; TRPML1-expressing cells, Ca2+ dye fluorescence, FDSS; host cell line not named in the record; reference of the full effect not given here; hit rate 0.12% among 410,000; Q9GZU1; activation, % (no concentration beside the values); in the data active = activation above about 50%; inconclusive = about 30% to 50%; inactive = below about 30%; note: 0% is about no effect; the text of the record puts the active cut at 80%
Target sequence (Q9GZU1 whole entry, looked up): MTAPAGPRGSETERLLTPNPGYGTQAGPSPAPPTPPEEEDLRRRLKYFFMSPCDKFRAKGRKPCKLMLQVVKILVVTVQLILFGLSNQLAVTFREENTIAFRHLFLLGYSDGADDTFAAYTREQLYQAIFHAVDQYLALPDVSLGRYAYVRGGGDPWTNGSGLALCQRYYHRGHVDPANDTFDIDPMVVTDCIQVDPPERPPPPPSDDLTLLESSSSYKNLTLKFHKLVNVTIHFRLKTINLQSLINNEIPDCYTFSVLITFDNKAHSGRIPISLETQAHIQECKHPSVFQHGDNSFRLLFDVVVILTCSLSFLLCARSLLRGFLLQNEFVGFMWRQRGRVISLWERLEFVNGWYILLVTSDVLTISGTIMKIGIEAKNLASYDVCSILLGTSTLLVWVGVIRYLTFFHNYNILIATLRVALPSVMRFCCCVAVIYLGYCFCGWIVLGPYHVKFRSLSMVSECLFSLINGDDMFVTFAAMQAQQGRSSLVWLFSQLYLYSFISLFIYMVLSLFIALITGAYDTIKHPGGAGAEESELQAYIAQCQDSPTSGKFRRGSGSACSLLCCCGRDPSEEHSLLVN
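TRPML1-DL cells, Tet-induced overnight (~16 h, 37 degrees C), loaded 45-90 min at room temperature with Ca8 no-wash calcium dye plus quencher. FDSS fluorescence: 10 s baseline, compound pin-transfer, 110 s agonist read, then EC80 54-4 (4uM final) and 110 s antagonist read.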
Menin-MLL FL inh: inhibitors of human menin-MLL interaction, wild-type MLL peptide; 290,000 tested, under 10 active; Fluorescence polarization, fluorescein-MLL peptide displacement from menin; AID 1766; FP activity change, % at 61.4 µM; inconclusive = falling polarisation curve, or a change in total fluorescence; inactive = total fluorescence flat and polarisation flat or rising; no compound was filed as active; the % refers to the polarisation; negative = inhibition;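 note: % of control where 0% means no effect; inhibitors lower the polarisation; unlabelled MLL peptide was the positive control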
TRPML1 blocker: blocks the human TRPML1 channel; Q9GZU1; TRPML1-inducible cells, Ca2+ dye fluorescence, FDSS; hits give low values; inhibition of EC80 agonist-evoked calcium signal; activity change, negative = inhibition, % (concentration not given with the values); hit rate 0.02% among 390,000; AID 624415; in the data active means activity change below about -50%; inconclusive means about -30% to -50%; inactive means above about -30%;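 note: stimulus is agonist 54-4 at its EC80 concentration; % is set by controls: 0 for no effect and ±100 for the full control effect; compound concentration not given in the record; the text of the record puts the active cut at -80%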
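Calcium fluorescence in TRPML1-DL cells induced overnight with Tet: a 110 s read after compound pin addition, then a 110 s antagonist read after challenge with 54-4 at 4 uM final (EC80).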
gsp ag: activates gsp, the McCune-Albright syndrome mutation; AID 624287; gsp mutant cells, cAMP HTRF, 30 min; control for the full effect not named in the record; hit rate 0.13% among 340,000; Potency, µM (series often up to 76.9 µM), for the others: top-dose activation (cAMP increase), most hits filed as activators; active = well fitted activation curve with a large enough effect; inconclusive = small, poorly fitted or top-dose-only effect, or another doubt; inactive = no such curve, though single readings can be large or run the other way; cell line not stated here;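 note: phosphodiesterase inhibitor Ro 20-1724 added with compounds to block cAMP breakdown; potency is the fitted concentration of half-maximal effect; nearly all actives have a fitted effect of over 60% in size; about a fifth of the inactives were tested at one dose only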
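Cells in DMEM/10% FBS with G418 were pretreated with compounds in DMSO plus […] (300 uM stock) for 30 min at 37C. cAMP was measured by HTRF (cAMP-d2 plus anti-cAMP antibody-K) after 30 min at room temperature.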
gsp antag: antagonizes gsp, the McCune-Albright syndrome mutation. gsp-mutant cells, cAMP HTRF, 30 min; control for the full effect not named in the record. Potency, µM (titrated, usually from 76.9 µM), for the others: at the top dose activity change, negative = inhibition, actives largely listed as inhibitors. hit rate 0.4% among 340,000; active = falling curve of any shape with a large fitted effect; inconclusive = falling curve, mostly with a smaller effect; inactive = flat or rising curve; cell line not stated here;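 note: intracellular cAMP measured with PDE inhibitor Ro 20-1724 present during compound exposure; potency is the fitted concentration of half-maximal effect; % is set by controls: 0 for no effect and ±100 for the full control effect; nearly all actives have a fitted effect of over 65% in size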
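Cells in G418 medium, seeded 16-24 h, 37C; buffer exchange to DPBS + 1 mM CaCl2, 0.5 mM MgCl2, 0.05% BSA; cpds in DMSO + […] (300 uM stock), 30 min 37C; HTRF cAMP detection.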
ClpP mod: qHTS Assay for Activators of ClpP. ATP-dependent Clp protease proteolytic subunit (Bacillus subtilis (strain 168)), P80244. purified B. subtilis ClpP, FRET peptide cleavage, 20 min. Potency, µM (doses to about 57.5 µM), without a hit: at the highest dose activity change, negative = active. hit rate 1.9% among 340,000. AID 651965, 2013; active = well fitted falling curve with a large enough effect; inconclusive = small, poorly fitted or top-dose-only effect; inactive = no such curve, though single readings can be large or run the other way; note: potency is the fitted concentration of half-maximal effect; the source files actives as falling curves though it sought activators and does not explain the sign; nearly all actives have a fitted effect of over 65% in size; many hits overshoot -100%
Target sequence (P80244 whole entry, looked up): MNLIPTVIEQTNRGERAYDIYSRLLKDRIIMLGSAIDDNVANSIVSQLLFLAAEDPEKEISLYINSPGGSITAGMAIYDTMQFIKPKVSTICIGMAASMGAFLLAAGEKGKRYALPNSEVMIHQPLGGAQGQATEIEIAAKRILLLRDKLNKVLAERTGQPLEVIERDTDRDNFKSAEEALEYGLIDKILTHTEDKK
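ClpP 10 microg/mL final, pH 8 Tris/KCl buffer with BSA, glycerol, Tween-20; compound pinned in; FRET-FV substrate; RT 20 min; Ex320/Em430; ΔFRET vs ADEP 5.8 microM, DMSO, no enzyme.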
Active calls of the source: *; ? = inconclusive; . = not tested or not shown; & = joins results of further samples; [ ] = remark or other dose.

nr	canonical_smiles	TRPML1 ag	Menin-MLL FL inh	TRPML1 blocker
1	CC(=O)Nc1ccc(S(=O)(=O)N(C)CC(=O)OCCOc2cccc(C)c2)cc1	0.1	.	2
2	O=C(NCc1cccs1)C1CCCN1C(=O)Nc1ccccc1[N+](=O)[O-] (stereo unspecified)	-0.4	-1.6	2
3	O=C(CSc1oc(-c2ccccc2)nc1S(=O)(=O)c1ccc(Cl)cc1)Nc1ccc(F)cc1	-0.3	.	-23
4	CC(C)(C)C(=O)NNc1nc(-c2ccccc2)c2cc(Br)ccc2n1	1.6	-1.8	10
5	Cc1cccc(NC(=O)[C@@H]2CCCN2S(=O)(=O)c2ccc(Cl)cc2)c1	-0.8	.	9
6	COCC(=O)N1CCC(Oc2ccc(C(=O)N3CCN(C)C[C@@H]3C(C)C)cc2)CC1	3.6	-1.2	0
7	COC(=O)Nc1ccc(S(=O)(=O)Nc2ccc(C(=O)O)cc2)cc1	-0.5	-4.0	9
8	CCOCc1nc(N)[nH]c(=O)c1Cc1ccc(OC(C)C)cc1	1.0	2.1	-8
9	Cc1ccccc1CCNC(=O)Cn1nc(C)c2c(C)n(-c3ccccc3)nc2c1=O	-1.3	6.4	-2
10	CC1(C#N)c2ccccc2C(Br)=CN1C(=O)c1ccccc1 (stereo unspecified)	1.6	.	-10
11	O=C(C1CCCC1)N1CCCC(Nc2ccc(F)cc2)C1 (stereo unspecified)	0.8	.	4
12	COc1ccc(C2C=C(c3ccc(Cl)c(Cl)c3)Nc3ncnn32)cc1 (stereo unspecified)	-0.4	.	-2
13	Cc1ccc(C(=O)CSC2=C(C#N)C(c3ccco3)CC(=O)N2)c(C)c1 (stereo unspecified)	16	5.6	-9
14	CCc1ccccc1NC(=O)N1CCOc2ccccc21	0.9	.	-17
15	COc1ccccc1C(=O)C(=O)c1ccccc1OC	-0.9	.	0

nr	gsp ag	gsp antag	ClpP mod
1	-85%[inhibitor]	-15%	1.2%
2	?	7%	.
3	.	.	-2.5%
4	0%	-15%	1.0%
5	-3%	1%	0.9%
6	-2%	8%	-2.3%
7	-1%[15.4 µM]	.	.
8	1%	5%	-2.4%
9	?	-31%	-2.6%
10	.	-8%	-5.4%
11	?	8%	-1.1%
12	.	.	4.5%
13	-5%	17%	-0.7%
14	.	.	0.2%
15	12%	1%	.

The results go on:
nr	canonical_smiles	TRPML1 ag	Menin-MLL FL inh	TRPML1 blocker
16	Cn1ncc(Cl)c1C(=O)Nc1ccc2c(c1)OCO2	0.0	.	-25
17	CCN(Cc1ccccc1)C(=O)Cn1cc(S(=O)(=O)Cc2cccc(Cl)c2)c2ccccc21	2.4	.	-8
18	CCC(C(=O)NC1CCCCC1)n1nc(C)c2sc3ccccc3c2c1=O (stereo unspecified)	0.3	.	3
19	c1csc(-c2nn3c(C4CCCCC4)nnc3s2)c1	1.1	.	20
20	CC1=C(C(=O)OCC2CCCCC2)C(c2ccc(Cl)cc2Cl)CC(=O)N1 (stereo unspecified)	-0.3	.	-9
21	CCOC(=O)c1ccc(NC(=O)C2CCN(S(=O)(=O)c3ccc(C)cc3)CC2)cc1	-0.7	.	10
22	Oc1cccc2c(NC(=S)Nc3ccc(OC(F)F)cc3)cccc12	-0.1	16	-3
23	CN(CC(=O)Nc1ccc(Cl)cc1)C(=O)Cn1[nH]c(=O)c2ccccc2c1=O	-0.9	.	63
24	O=C(COc1ccccc1[N+](=O)[O-])N1CCN(C(=O)c2ccco2)CC1	0.1	2.6	36
25	CCOc1ccc(C(c2c(C)[nH][nH]c2=O)c2c(C)[nH][nH]c2=O)cc1OC	1.5	-0.8	28
26	Cn1c(SCc2cc(=O)[nH]c3ccccc23)nnc1-c1ccc(Br)cc1	-0.6	2.5	3
27	CCCCCCCC1(C)NC(=O)N(c2ccccc2)N1 (stereo unspecified)	1.2	0.8	11
28	CCn1cc([N+](=O)[O-])c(C(=O)N2N=C(c3ccc(Cl)c(Cl)c3)CC2c2ccccc2O)n1 (stereo unspecified)	0.9	-2.2	-7
29	C/C(=C\C(=O)c1ccc(Br)cc1)N1CCCCC1	0.1	4.0	-10
30	Cc1cccc(C(=O)Nc2ccccc2SCc2cc(=O)c3cccc(C)c3[nH]2)c1	0.3	.	13

nr	gsp ag	gsp antag	ClpP mod
16	?	-5%	-0.5%
17	.	.	-0.5%
18	.	.	-4.4%
19	7%	10%	-1.8%
20	.	.	1.9%
21	.	.	-1.5%
22	17%	-8%	.
23	-1%	-8%	-5.9%
24	1%[15.4 µM]	0%	-1.9%
25	-17%	11%	-0.9%
26	14%	2%	1.3%
27	-2%	3%	-1.3%
28	-54%[inhibitor]	-7%	.
29	11%	3%	-0.7%
30	.	.	-1.8%

Next section
nr	canonical_smiles	TRPML1 ag	Menin-MLL FL inh	TRPML1 blocker
31	COCCN(C(=O)CSCc1ccccc1)c1c(N)n(Cc2ccccc2)c(=O)[nH]c1=O	-0.1	.	1
32	COc1ccccc1C1=NOC(COC(=O)c2ccc(Br)cc2)C1 (stereo unspecified)	4.2	7.0	7
33	N/C(=N\OC(=O)CCCOc1ccc(Cl)cc1Cl)c1ccccn1	2.3	-4.9	7
34	COc1ccc(OC)c(-c2csc(N(C)C(=O)c3ccco3)n2)c1	1.5	0.1	-2
35	O=C(COC(=O)/C=C/c1ccc(Cl)cc1Cl)Nc1cccc(S(=O)(=O)NC2=NCCC2)c1	-0.6	.	3
36	Cc1cc([N+](=O)[O-])nn1CC(=O)N/N=C/c1ccccc1O	-0.8	-3.0	7
37	CCOC(=O)c1ccc(NC(=O)CNS(=O)(=O)c2ccccc2)cc1	0.0	0.2	-4
38	COc1ccc(C(=O)COC(=O)CSCc2c(C)noc2C)cc1OC	0.1	-0.1	27
39	Cc1ccc(S(=O)(=O)Nc2ccc(S(=O)(=O)Nc3ncccn3)cc2)cc1	0.9	-1.0	2
40	O=C(NCc1ccc(OC(F)(F)F)cc1)C1CC(c2cccc(F)c2)=NO1 (stereo unspecified)	0.1	0.0	-1
41	O=C(Cc1ccc(Br)cc1)N/N=C/c1ccc(-c2cccc(C(=O)O)c2)o1	-0.5	3.8	9
42	Cc1nn(-c2ccccc2)c(C)c1CN	-1.2	0.2	14
43	Fc1ccc(CN2CCN(c3ncccn3)CC2)c(F)c1	0.1	0.2	-4
44	Cc1cccc(C)c1CC(=O)N1CCOCC1	-0.5	-5.4	-7
45	CCCCn1nnc(NC(=O)c2ccc([N+](=O)[O-])cc2Cl)n1	.	-5.7	.

nr	gsp ag	gsp antag	ClpP mod
31	1%	-3%	-0.7%
32	-10%	5%	-5.1%
33	1%[15.4 µM]	-6%	-1.4%
34	-41%[inhibitor]	-10%	124%
35	-37%[inhibitor]	.	3.0%
36	?	7%	-1.0%
37	-65%[inhibitor]	-1%	101%
38	18%	-19%	-2.2%
39	?	-6%	-0.8%
40	.	13%	0.4%
41	22%[15.4 µM]	-17%	.
42	11%[15.4 µM]	-1%	-6.8%
43	-13%	13%	-1.4%
44	0%[15.4 µM]	1%	0.2%
45	-11%	9%	1.4%

Next part
nr	canonical_smiles	TRPML1 ag	Menin-MLL FL inh	TRPML1 blocker
46	Cc1ccn2c(=O)c(C(=O)NCCCN3CCCCC3C)c(O)nc2c1 (stereo unspecified)	-0.3&-0.3	.	5&-8
47	Cc1ccc2nc(SCC(=O)Nc3ccc4sc(C)nc4c3)c(C#N)cc2c1	-0.9	13	9
48	Cn1cc(CN2CCC[C@H]2CO)c(-c2cccc(Cl)c2)n1	1.1	2.7	-6
49	O=C(CCc1ccccc1)NCCc1nc2ccccc2[nH]1	1.4	-0.6	4
50	CN1CCN(C(=O)c2cc([N+](=O)[O-])ccc2Cl)CC1	0.3	-2.4	-15
51	CCC(=O)Nc1ccc2c(c1)nc1n2CCSC1	0.3	-0.5	-13
52	O=C(CSCc1ccccc1)Nc1cccc(C(=O)Nc2ccccc2C(=O)O)c1	1.9	2.5	6
53	COc1cccc(-c2nc(CS(=O)CC(=O)NC3CCCC3)c(C)o2)c1 (stereo unspecified)	-0.2	3.1	-1
54	CCCCN(CC)S(=O)(=O)c1ccc(C(=O)N=c2sc3cc(NC(C)=O)ccc3n2C)cc1	-0.1	2.5	4
55	CCOc1ccc(-c2noc(CSc3nnc(-c4ccccc4)n3-c3ccccc3)n2)cc1	2.3	.	-13
56	Cc1ccc(C)c(NC(=O)CCN2C(=O)[C@@H]3Cc4ccccc4CN3C2=O)c1	-0.4	.	2

nr	gsp ag	gsp antag	ClpP mod
46	-2%	8%	?
47	0%	23%	-1.0%
48	-11%	4%	-0.5%
49	-31%	13%	0.1%
50	-33%	1%	.
51	21%	10%	2.0%
52	10%	-25%	-0.6%
53	-31%[inhibitor]	4%	-21%
54	29%	7%	30%
55	.	.	-0.2%
56	22%	7%	.

In another format: entries from further up.
item	SMILES	TRPML1 ag	Menin-MLL FL inh	TRPML1 blocker	gsp ag	gsp antag	ClpP mod
55	CCOc1ccc(-c2noc(CSc3nnc(-c4ccccc4)n3-c3ccccc3)n2)cc1	2.3	.	-13	.	.	-0.2%
47	Cc1ccc2nc(SCC(=O)Nc3ccc4sc(C)nc4c3)c(C#N)cc2c1	-0.9	13	9	0%	23%	-1.0%
56	Cc1ccc(C)c(NC(=O)CCN2C(=O)[C@@H]3Cc4ccccc4CN3C2=O)c1	-0.4	.	2	22%	7%	.
50	CN1CCN(C(=O)c2cc([N+](=O)[O-])ccc2Cl)CC1	0.3	-2.4	-15	-33%	1%	.
49	O=C(CCc1ccccc1)NCCc1nc2ccccc2[nH]1	1.4	-0.6	4	-31%	13%	0.1%
46	Cc1ccn2c(=O)c(C(=O)NCCCN3CCCCC3C)c(O)nc2c1 (stereo unspecified)	-0.3&-0.3	.	5&-8	-2%	8%	?
